NPYLR7 agonist – mosquito NPYLR7 agonism; HEK293T NPYLR7/Galpha15, GCaMP6s calcium fluorescence; 270,000 compounds, 0.15% hits; activation, % at 10 µM; AID 1259423; in the data active means activation above about 40%;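 further: 0% = vehicle and 100% = reference agonist at the receptor; some compounds past the cut are filed as inactive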
NPYLR7 agonist max-min – further read-out of NPYLR7 agonist, marked with its call; activation, %; measured here: Max-Min RFU normalised activation; some inactives read as strong as hits;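 span of the calcium signal over five minutes; 0% = vehicle and 100% = native peptide agonist; compound fluorescence can raise it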
The depositor's hits bear a star. Only part of the results is shown; count on the stated rates, not on these rows.

SMILES	NPYLR7 agonist	NPYLR7 agonist max-min
CCN1CCN(C(=O)N[C@@H](C(=O)N[C@@H]2C(=O)N3C(C(=O)O)=C(CSc4nnnn4C)CS[C@H]23)c2ccc(O)cc2)C(=O)C1=O	-3.9	-6.6
COCCN(CCOC)C(=O)Cn1cnc2ccc(Br)cc2c1=O	5.1	0.5
CC(C)Oc1cccc(F)c1-c1cc(N2CCOCC2)nc(N)n1	-1.1	0.8
COc1ccc(NC(=O)N2CCN(C(C(=O)N3CCCC3)C3CCCC3)CC2)cc1 (centres undefined)	-7.2	-1.3
COc1ccc(Cl)cc1C(=O)Nc1cc(C2CC2)nn1-c1nc(C)cc(=O)[nH]1	0.5	1.3
N#CCc1c(C#N)c(N)nc(N2CCCC(O)C2)c1C#N (centres undefined)	4.5	5.6
CNC(=O)Cn1c(CO)cnc1SCc1cccc(Cl)c1	4.6	4.5
Cc1sc2ncnc(Nc3ccc4c(c3)NC(=O)CO4)c2c1C	-6.6	-6.9
Cc1ccccc1-n1ncc2c1CC(C)(C)CC2NC(=O)CN1C(=O)c2ccccc2C1=O (centres undefined)	6.0	-0.5
CC1=CC[C@@H]2CN(C(=O)CCc3n[nH]c(C)n3)C[C@@H]2C1	-2.4	-3.8
Cc1cn2c3c(=O)[nH]c(=O)n(C)c3nc2n1CCN(C)Cc1ccccc1	5.5	6.8
COC(=O)c1ccccc1N1C(=O)C2C3C=CC(C3)C2C1=O (centres undefined)	-4.4	-3.9
COC(=O)CCN(C(=O)c1c(C)noc1C)c1cccc(F)c1	1.6	1.0
COc1ccccc1CN1CN(S(=O)(=O)c2cccs2)c2nc3ccccc3nc21	1.6	-8.2
O=C(Cc1ccc(Cl)cc1)NCc1nnnn1C1CCCCC1	1.8	2.1
CC(C)(C)N(CC(=O)N1CCc2sccc2C1c1ccccc1)C(=O)c1cccs1 (centres undefined)	-8.9	-0.4
Cc1ccc(/C=C/S(=O)(=O)N(CCO)c2ccc(Br)cc2)cc1	11.8	9.1
CCCCCCCC(=O)N1CCN(c2cc(Cl)nc(SCC(=O)N3CCN(c4ccc(OC)cc4)CC3)n2)CC1C (centres undefined)	-10.6	-1.4
Cc1nc(C)n(CCCNC(=O)c2c(C)nn(C)c2C)n1	3.5	5.4
CCn1c(C2CCN(Cc3csc(-c4ccccc4)n3)CC2)n[nH]c1=O	6.3	2.7
Cn1cnnc1-c1ccc(NC(=O)NCC2(c3ccc(F)cc3)CC2)cc1	-1.6	7.3
Cc1ccc2c(c1)C(CC(=O)N(C)Cc1cn[nH]c1-c1ccc(F)cc1)C(=O)N2 (centres undefined)	2.6	-0.2
Cc1cccc(-c2ncc(CN3CCCC(Cn4ccnc4C)C3)cn2)c1 (centres undefined)	-4.8	-11.3
CCCNC(=O)C(CC)n1nc(CC)n2c(cc3occc32)c1=O (centres undefined)	-2.1	-2.5
CN(CC(=O)NC(=O)NC(C)(C)C)C1CCCCC1	-1.1	1.5
Cn1cc(C(CC(=O)NCCN2CCOCC2)c2ccccc2C(F)(F)F)c2ccccc21 (centres undefined)	-12.3	-11.2
CC(=O)c1cccc(OC(C)C(=O)NC2CCC3CCCCC3C2)c1 (centres undefined)	-1.7	-1.9
N#CC(=Cc1ccsc1)C(=O)Nc1nccs1	-0.9	-3.1
COc1ccc(NC(=O)CSc2nnc(C)c3cnn(-c4ccc(F)cc4)c23)c(OC)c1	-10.0	-15.9
CN(C)c1oc(-c2ccc(Cl)cc2)nc1C#N	14.7	3.8
COc1cc2c(cc1OC)C(C(C)NS(=O)(=O)c1ccccc1)N(Cc1ccccc1F)CC2 (centres undefined)	4.6	7.4
COc1cc(NC(=O)c2cnn3c(C(F)(F)F)cc(-c4ccc(F)cc4)nc23)cc([N+](=O)[O-])c1	-7.2	-8.0
O=C(NC(c1ccc(F)cc1)c1ccc2ccccc2n1)C1CCN(Cc2c[nH]c3ccccc23)CC1 (centres undefined)	-2.2	-3.9
NC(=NOC(=O)COc1ccc2ccccc2c1Br)c1ccncc1	-7.4	-13.6
COCc1ncc(CN2CCCN(C(=O)C3CCC3)CC2)cn1	2.1	4.6
COCCNC(=S)NN=Cc1cc(OC)c(OC)cc1OC	-7.5	-10.9
COc1ccccc1N1CCN(c2ccc(NC(=O)c3cccc(Cl)c3)cc2C(=O)NCC2CCCO2)CC1 (centres undefined)	1.0	-8.9
CCN(Cc1ccncc1)C(=O)c1cc(C)c(C)c(S(N)(=O)=O)c1	4.7	-4.8
O=C(NCCn1cccn1)C1CCC(=O)N(CCc2cccc(F)c2)C1 (centres undefined)	18.7	7.7
O=S(CCSc1n[nH]c(C2CCCC2)n1)c1ccccc1 (centres undefined)	2.0	-0.7
Cc1ccc(C(=O)N(C)C)cc1NS(=O)(=O)c1ccc(-c2ccccc2)cc1	-6.4	-5.7
O=C(c1ccccc1)n1ccn(-c2ccccc2)c1=S	-8.4	-8.0
Cc1nc2cc(C(F)(F)F)ccc2n1C1CCN(C(=O)C2CC=CCC2)CC1 (centres undefined)	20.2	5.4
CCOC(=O)C1CCCN(C(=O)Cc2csc(NC(=O)CN(C(=O)C3CCCCC3)C3CC3)n2)C1 (centres undefined)	-8.7	2.3
CN(CC1CCCO1)C(=O)Nc1ccc(N2CCCC2=O)cc1 (centres undefined)	6.2	8.0
c1ccc(Oc2ccc(-c3nc(N4CCN(Cc5ccc6c(c5)OCO6)CC4)c4ccccc4n3)cc2)cc1	2.1	5.2
Cc1cnccc1CNC(=O)c1ccc(OC2CCN(CCc3ccccc3)CC2)cc1	0.0	-1.6
CCOc1ccc(/C=N/NC(=O)c2cc3ccccc3oc2=O)cc1	3.7	0.1
O=C(CCCS)NC1CCN(C(=O)COc2ccc(Cl)cc2Cl)CC1	-5.3	-13.8
Cc1ccccc1Cn1c(C)c(N2CCOCC2)c(C)c1C(=O)NCc1ccc2c(c1)OCO2	9.7	17.3
Next part.
SMILES	NPYLR7 agonist	NPYLR7 agonist max-min
O=C(c1cccc(C(F)(F)F)c1)N1CCC2(CCc3ccccc32)C1 (centres undefined)	5.1	5.5
O=C(c1ccc(Cl)c(Cl)c1)N1CCN(c2cc(Oc3ccc(F)cc3F)ncn2)CC1	2.1	4.3
CCN(CC)C(=O)c1cc(-c2cccc(OC)c2)nc2cc(-c3ccccc3)nn12	12.4	11.5
O=C(NNC(=O)c1cc(Cl)ccc1Cl)Nc1ccc(Cl)cc1	1.4	0.5
CCCc1cc(-c2cc(NC3CCNCC3)nc3[nH]ccc23)nc(C)n1	5.6	0.4
CCOc1ccc(C(C2Sc3nc(C)nn3C2=O)N2CCN(CCO)CC2)cc1OC (centres undefined)	-13.1	-18.1
O=S(=O)(NCc1ccccc1)N1CCCC(c2nc3ccccc3o2)C1 (centres undefined)	8.9	6.1
CCc1nc2ccc(C(=O)N3CCN(C(=O)c4ccco4)CC3)cn2c1N(C=O)CC	-8.2	-10.3
CC(C)(C)c1cc2nc(C(=O)O)cc(-c3cccc(C(F)(F)F)c3)n2n1	-9.9	-5.9
CCN(CC)c1ncccc1CNC(=O)[C@@H]1CCC(=O)N1	5.9	3.6
Cn1cccc1C(=O)N1CCC(n2cnc3cc(C(F)(F)F)ccc32)CC1	18.7	16.6
CC(NC(=O)C1CCN(C)CC1)c1nnc2n1CCN(Cc1ccc3c(c1)Cc1ccccc1-3)CC2 (centres undefined)	15.7	5.4
CN1C[C@@H](N)C[C@H]1C(=O)NCCCN1CCOCC1	-5.6	-9.6
CCOc1ccccc1N1CCN(C(=O)c2ccc(CSc3nc(Cl)cc(N4CCN(c5cccc(C(F)(F)F)c5)CC4)n3)cc2)CC1	-1.7	0.9
COc1ccc(NC2CCCN(C(=O)C3CCN(C(=O)N(C)C)CC3)C2)cc1 (centres undefined)	1.7	-0.7
CCC(C)NC(=O)C(C1CCCC1)N1CCN(C(=O)c2ccc(C)cc2)CC1 (centres undefined)	-1.0	-1.4
O=S1(=O)CCC(n2nc(-c3ccco3)cc2NS(=O)(=O)c2ccc(F)cc2)C1 (centres undefined)	-1.3	-3.1
CNC(=O)CC(C)N(C)Cc1ccc(-c2ccccn2)cc1 (centres undefined)	2.9	1.0
Cc1cccc(C2SCC(=O)N2CC(C)O)c1 (centres undefined)	-1.9	-4.5
COc1cccc(C(=O)N(CC(=O)NCC(=O)Nc2cccc(C)c2)Cc2ccco2)c1	21.0	29.0
Cc1ccsc1CN(CCN(C)C)Cc1cccc(C)c1O	1.9	-14.3
CC(NC(=O)COc1ccccc1)c1ccccc1Cl (centres undefined)	0.7	-1.0
Cc1ccc(-n2nc(-c3cccs3)cc2C(=O)N2CCN(Cc3ccccc3)CC2)c(C)c1	3.7	13.7
CCn1nnc2c(Nc3cc(Cl)ccc3C)ncnc21	7.2	14.6
CN(C)c1cccc(C(=O)NC2CCN(C(=O)c3ccncc3)C2)c1 (centres undefined)	-23.2	-24.3
CCCCC(CC)C(=O)N1CCN(c2nccc(-c3ccc(N4CCOCC4)cc3)n2)CC1 (centres undefined)	-6.1	-11.5
Cc1cn2c3c(=O)n(CCCc4ccccc4)c(=O)n(C)c3nc2n1CCCN1CCOCC1	-7.6	-9.6
COc1ccc(F)c(F)c1C(=O)N1C[C@@H]2[C@@H]3CC[C@@H](C3)[C@@H]2C1	6.8	3.3
COc1ccc(C=C(C#N)S(=O)(=O)c2ccc(C)cc2)cc1	1.9	0.2
CC(=O)N1CCC(NC(C)c2ccc3c(c2)CCO3)CC1 (centres undefined)	11.2	9.9

An excerpt from above in order of heavy-atom count, ascending.
SMILES	NPYLR7 agonist	NPYLR7 agonist max-min
CC(=O)N1CCC(NC(C)c2ccc3c(c2)CCO3)CC1 (centres undefined)	11.2	9.9
CN(C)c1cccc(C(=O)NC2CCN(C(=O)c3ccncc3)C2)c1 (centres undefined)	-23.2	-24.3
Cc1cn2c3c(=O)n(CCCc4ccccc4)c(=O)n(C)c3nc2n1CCCN1CCOCC1	-7.6	-9.6

(listing goes on)
SMILES	NPYLR7 agonist	NPYLR7 agonist max-min
COc1ccc(NC(=O)NC2CCCN(S(C)(=O)=O)C2)cc1C (centres undefined)	4.4	2.8
CCOc1ccccc1Nc1nnc(SCC(=O)NC2(C#N)CCCC2)s1	-1.3	-0.7
CC(=O)Nc1ccc(S(=O)(=O)Oc2cccc(CN(CCN(C)C)C(=O)CC(C)C)c2)cc1	1.6	6.6
COCCN(CC(=O)N1CC(=O)N(c2ccc(Cl)cc2)C1)C(=O)c1ccccc1C	27.9	29.2
CCc1ccc(CN2CC(C(=O)N3CCC4(CCCO4)CC3)CC2=O)cc1 (centres undefined)	4.7	4.0
Cc1cc(C(=O)Nc2sccc2C(N)=O)nn1C	4.1	-0.7
O=S(=O)(CCCF)NCc1ccnc(Oc2ccc(F)cc2)c1	-0.3	-5.2
COCC(C)NCCN1CCCc2ccccc21 (centres undefined)	0.3	-4.3
COc1ccc(CC(=O)Nc2cc(-c3cn4nc(OC)ccc4n3)ccc2C)cc1	-6.5	-13.3

Structural class, the compounds so far with a Cl atom.
SMILES	NPYLR7 agonist	NPYLR7 agonist max-min
COc1ccc(Cl)cc1C(=O)Nc1cc(C2CC2)nn1-c1nc(C)cc(=O)[nH]1	0.5	1.3
CNC(=O)Cn1c(CO)cnc1SCc1cccc(Cl)c1	4.6	4.5
O=C(Cc1ccc(Cl)cc1)NCc1nnnn1C1CCCCC1	1.8	2.1
CCCCCCCC(=O)N1CCN(c2cc(Cl)nc(SCC(=O)N3CCN(c4ccc(OC)cc4)CC3)n2)CC1C (centres undefined)	-10.6	-1.4
CN(C)c1oc(-c2ccc(Cl)cc2)nc1C#N	14.7	3.8
COc1ccccc1N1CCN(c2ccc(NC(=O)c3cccc(Cl)c3)cc2C(=O)NCC2CCCO2)CC1 (centres undefined)	1.0	-8.9
O=C(CCCS)NC1CCN(C(=O)COc2ccc(Cl)cc2Cl)CC1	-5.3	-13.8
O=C(c1ccc(Cl)c(Cl)c1)N1CCN(c2cc(Oc3ccc(F)cc3F)ncn2)CC1	2.1	4.3
O=C(NNC(=O)c1cc(Cl)ccc1Cl)Nc1ccc(Cl)cc1	1.4	0.5
CCOc1ccccc1N1CCN(C(=O)c2ccc(CSc3nc(Cl)cc(N4CCN(c5cccc(C(F)(F)F)c5)CC4)n3)cc2)CC1	-1.7	0.9
CC(NC(=O)COc1ccccc1)c1ccccc1Cl (centres undefined)	0.7	-1.0
CCn1nnc2c(Nc3cc(Cl)ccc3C)ncnc21	7.2	14.6
COCCN(CC(=O)N1CC(=O)N(c2ccc(Cl)cc2)C1)C(=O)c1ccccc1C	27.9	29.2

Bioassay records (PubChem BioAssay)
